From PubChem BioAssay
ugtP null kill: growth inhibition of ugtP-null S. aureus, primary screen, RN4220 ugtP deletion, OD600 | growth inhibition, % (test concentration not listed) | 0.54% of 330,000 active | 16 h; some inactives read as strong as hits | AID 1259309, 2017;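 active = z-score under -3 and OD600 up to 0.15 on both plates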;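 also: plate controls were untreated wells for no effect and antibiotic for full effect; wells of about 80 µL received 100 nL stock; the first replicate is given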
PrP 5UTR inh: inhibition of PrP 5' UTR reporter expression; 0.35% of 340,000 active; inhibition, % (test concentration not listed); cell-based PrP 5' UTR mRNA reporter, plate reader;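 active = every replicate at 50% or more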;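 also: 0 = median of the neutral control wells; tested in H4 reporter cells; numbers are from one replicate; inactives centre near -14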
BJeLR viability: MLPCN primary cell-based screen for lethality selective to Ras in HRASV12 cells. AID 1554, 2009. 0.17% of 300,000 active. BJeLR (HRASV12) viability, CellTiter-Glo ATP luminescence, 48 h; reference of the scale not given here. inhibition, % (concentration not given with the values);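 active = replicate mean above 50%; inconclusive = above 50% but judged a plate artefact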;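 also: 50 nL library stock added to about 25 µL; numbers are from one replicate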
Bead autofluor: counter-screen for toxin protease inhibitors: compound fluorescence; fluorescence intensity (no concentration beside the values); compound autofluorescence counterscreen, microsphere flow cytometry; stronger effect = higher value; AID 624483; 3.1% of 360,000 active;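 active = at least 3 SD above the mean of all compounds, about 16000 in these data; inconclusive = too few beads counted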;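 also: 100 nL of 1 mM stock went into each well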
Sa RN4220 lethal: growth inhibition of S. aureus RN4220, primary screen, OD600; AID 1259311, 2017; inhibition, % (concentration not given with the values); 16 h; 0.33% of 330,000 active;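 active = z-score of -3 or lower and OD600 up to 0.18 on both plates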;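 also: plate controls were untreated cells for no effect and reference antibiotic for full effect; stock transfer was 100 nL into about 80 µL; one replicate is shown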
Mtb hypoxia inh: PubChem AID 1159583. M. tuberculosis hypoxia-regulated fluorescent reporter, fluorescence. fluorescence inhibition, % (test concentration not listed). 0.1% of 300,000 active;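 active = 35 to 45% if threefold the growth effect, above 45% if 1.5-fold the growth effect; inactive = the rest, general growth blockers included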;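 also: wells of about 50 µL received 100 nL stock; 0% = vehicle wells and 100% = reference inhibitor wells; whole bacteria with a GFP reporter of the hypoxia response; strong numbers were not always called active; many hits fall short of the cut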
Mtb hypoxia inh growth: second read-out of Mtb hypoxia inh, no call of its own (marks repeat the call); growth inhibition, %; measured here: M. tuberculosis growth (absorbance);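 0% = vehicle and 100% = reference antibiotic; read after six days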
Active calls of the source: *; ? = inconclusive; / = no result given.

SMILES	ugtP null kill	PrP 5UTR inh	BJeLR viability	Bead autofluor	Sa RN4220 lethal	Mtb hypoxia inh	Mtb hypoxia inh growth
NNC(=O)C(=O)Nc1ccc(Cl)c(Cl)c1	-1	/	1	4812	1.5	2	1
Cc1nn(-c2ccc(F)cc2)c(Cl)c1/C=C(/CCC(=O)O)c1nc2ccccc2s1	-26	-20	/	3633	14	1	2
CC(C)c1[nH]nc2c1C(Cc1ccccc1)C(C#N)=C(N)O2 (stereo unspecified)	21	-4	-3	7000	-3.1	-2	-10
CCO[C@@H]1OC(C(=O)Nc2ccccc2)=C[C@H](c2ccc3c(c2)OCO3)[C@H]1CCCO	/	-15	-10	3473	/	/	/
CCOC(=O)NNS(=O)(=O)c1cc(Br)ccc1Br	5	-52	1	2685	3.1	16	-8
COc1ccccc1C1CCN(c2cc(O)ccc2[N+](=O)[O-])CC1	1	-30	5	?	-8.0	2	7
Cc1n[nH]c(C)c1CCN(C)Cc1cn(C)nc1-c1ccc2c(c1)OCCO2	3	-10	6	4565	7.0	2	-3
CC(C)(C)S(=O)(=O)c1c(C(=O)O)cccc1C(=O)O	-6	-13	9	8635	5.9	9	6
CC1=C(C#N)C(NC(=O)C2CC2)(C(F)(F)F)C(=O)N1 (stereo unspecified)	6	-25	-5	2441	1.5	/	/
Cn1ncc(Br)c1C(=O)NC1CCCCCC1	3	-5	3	6754	2.4	10	0
CCC(C(=O)C(C)C(O)C(C)CCc1ccc(C)c(O)c1C(=O)O)C1O[C@](CC)(C2CC[C@](O)(CC)C(C)O2)CC1C (stereo partly specified)	90*	/	/	/	99*	17	25
Cc1cccc(C)c1NC(=O)CN(c1ccccn1)S(=O)(=O)c1ccccc1	4	-3	-1	2041	-3.4	-7	7
COc1ccc(NCC(=O)Nc2ccc(Br)cc2F)c(OC)c1	18	-18	-2	4009	28	/	/
O=[N+]([O-])c1ccc(Oc2ccc(OCc3ccccc3)cc2)nc1	17	-6	7	3132	-5.9	7	-16
COc1cc(C(=O)NCC2(c3ccccc3)CCCC2)cc(OC)c1OC	4	-24	16	4125	0.2	10	12
Cc1cc(/C=N\NC(=O)c2cccs2)c(C)n1-c1ccc2ncccc2c1	/	-97	3	2575	/	/	/
O=C1Nc2ccccc2C(O)(C(=O)NCc2ccco2)N1c1ccc(Cl)cc1 (stereo unspecified)	-29	-27	2	3671	-8.2	4	12
Cc1cc(C)nc(SCC(=O)Nc2ncc(Cc3cccc(Cl)c3)s2)n1	-8	-5	-3	2167	7.0	3	8
O=S(=O)(Nc1ccc(-c2ccc(NS(=O)(=O)c3ccccc3)cc2)cc1)c1ccccc1	8	-8	/	2779	4.2	5	3
COc1cc2c(cc1OC)C1=C(C#N)COCN1CC2	2	-18	0	3790	0.4	/	/
COc1ccccc1C=NNc1nccnc1Cl	-8	/	/	/	2.7	6	1
O=C(c1cc(-c2ccncc2)nc2ccccc12)N1CCN(c2ccccc2O)CC1	-8	-11	6	8778	3.6	2	-1
COc1cc(C)ccc1Oc1ncnc(N)c1[N+](=O)[O-]	0	-29	3	3053	0.0	2	0
CCCCS(=O)CC(O)COCC (stereo unspecified)	11	-5	3	9733	6.6	8	8
CCc1nc(N2CCN(C(=O)c3ccccc3)CC2)c2c3c(sc2n1)CCCC3	3	-6	-6	4448	22	15	12
CC(C)CCNC(=O)c1c(CSc2ccccc2)noc1C(=O)NCc1ccccc1	1	-13	-3	3847	-3.6	18	6
CC(C)(C)c1csc(NC(=O)Cn2cnc3ccccc3c2=O)n1	12	-4	0	2796	0.0	/	/
CC(C)(C)c1ccc(S(=O)(=O)NCc2ccc(C(=O)NCc3ccccn3)cc2)cc1	9	-29	-8	2400	3.7	2	-3
CCOc1ccc(NC(=O)CN(C)C(=O)c2ccc(N3CCCC3)c([N+](=O)[O-])c2)cc1OCC	11	-8	9	4445	3.3	1	-8
Cc1ccc(C(=O)NCCCNC(=O)c2cccnc2)cc1	4	-22	3	5281	-2.5	-6	10
CCNC(=S)NN=C(C)c1cccc(C(F)(F)F)c1	6	/	/	/	3.0	3	6
Cc1ccc(C)c(NC(=O)CSc2nnc([C@@H](N)Cc3c[nH]c4ccccc34)o2)c1	-3	-9	1	24677*	2.4	5	3
Cc1ccc(N=C/C(C(=O)C(F)(F)F)=C(\O)c2cccs2)cc1	-4	-80	0	3838	-0.8	11	3
O=C(COc1ccccc1)Nc1ccc(CSc2ccccc2)cc1	3	-1	-14	3896	2.6	3	4
COc1ccc(CNC(=O)[C@H](NC(=O)C2CCN(C(=O)[C@@H](N)CCSC)CC2)C(C)C)cc1	-28	-19	-7	5170	0.4	/	/
CCOC(=O)c1nc2nc(C)c(Cl)c(=O)n2[nH]1	-6	-5	/	3332	-3.3	/	/
COc1ccc(OC)c(S(=O)(=O)N2CCC(C(=O)NCC3CCCO3)CC2)c1 (stereo unspecified)	8	-13	0	2467	1.4	8	2
O=P(Nc1cccnc1)(Oc1ccccc1)Oc1ccccc1	-9	-8	6	2068	0.3	-5	-14
CCC(=O)Nc1cc2c3c(c1)CCC(=O)N3CCC2	1	-1	2	5949	4.6	-1	3
Fc1ccc(/C=N/Nc2nccnc2Cl)cc1	/	-32	19	4217	/	/	/

Entries listed so far containing a tert-butyl group, in the order listed:
SMILES	ugtP null kill	PrP 5UTR inh	BJeLR viability	Bead autofluor	Sa RN4220 lethal	Mtb hypoxia inh	Mtb hypoxia inh growth
CC(C)(C)S(=O)(=O)c1c(C(=O)O)cccc1C(=O)O	-6	-13	9	8635	5.9	9	6
CC(C)(C)c1csc(NC(=O)Cn2cnc3ccccc3c2=O)n1	12	-4	0	2796	0.0	/	/
CC(C)(C)c1ccc(S(=O)(=O)NCc2ccc(C(=O)NCc3ccccn3)cc2)cc1	9	-29	-8	2400	3.7	2	-3

(listing goes on)
SMILES	ugtP null kill	PrP 5UTR inh	BJeLR viability	Bead autofluor	Sa RN4220 lethal	Mtb hypoxia inh	Mtb hypoxia inh growth
CN1CCN(c2oc(-c3ccccc3F)nc2S(=O)(=O)c2ccc(Cl)cc2)CC1	18	6	0	?	7.2	-8	4
O=C(CCC1CCCN(C(=O)Cc2cccc(F)c2)C1)N1CCN(c2ccccn2)CC1 (stereo unspecified)	2	27	2	3886	8.0	12	-3
COc1ccc(OC)c(S(=O)(=O)N2CCN(C(=O)c3ccco3)CC2)c1	3	-2	13	3175	2.8	12	6
CC(=O)c1ccc(N(CC(=O)NC2CCCCC2)C(=O)c2csnn2)cc1	/	-29	0	5279	/	/	/
CCOC(=O)CCNC(=O)N1CCCC(C(=O)c2ccccc2SC)C1 (stereo unspecified)	14	12	-7	3386	2.5	-1	4
CS(=O)(=O)N1CCc2cc(S(=O)(=O)NCCNS(=O)(=O)c3ccc4c(c3)CCN4S(C)(=O)=O)ccc21	1	-14	0	3715	3.7	-17	-6
CC[C@]12c3[nH]c4cc(CCC(=O)N(C)C)ccc4c3CCN1C(=O)[C@@H](CC(=O)NC/C=C(\C)CCC=C(C)C)C[C@@H]2C(=O)N1CCN(C(=O)c2ccco2)CC1	2	-11	/	4116	-3.4	2	8
O=C(NCCCN1CCCCC1)C1CCN(S(=O)(=O)N2CCC3(CC2)OCCO3)CC1	11	-16	5	4685	3.6	10	-1
CN(C)c1ccc(C=Nn2c(-c3cccnc3)n[nH]c2=S)cc1	3	/	/	/	-1.1	0	4
O=S(=O)(NCC1CCCO1)c1cc(Cl)ccc1Br (stereo unspecified)	-6	-17	5	12831	1.2	2	7
Cc1onc(-c2ccccc2)c1C(=O)Nc1ccc(C(=O)N2CCCCC2)cc1	4	-25	-8	3278	5.6	-2	4
CC(=O)c1c(C)nc2cc(Cl)ccc2c1N	6	-11	1	2877	0.3	/	/
CC(C)OCCCNC(=O)c1c(N)n(N=Cc2cccs2)c2nc3ccccc3nc12	-17	/	/	/	11	13	22
Cc1cccc(OCC(=O)NCc2nc(-c3ccccc3)no2)c1	0	-2	2	6678	-2.6	3	9
COC(=O)[C@H](Cc1ccccc1)NC(=O)NCc1ccc(C)cc1	17	/	-7	3609	5.9	-6	10
COc1ccc(N(CC(O)Cn2c3ccccc3c3ccccc32)S(=O)(=O)c2ccccc2)cc1 (stereo unspecified)	-13	-18	-3	2153	0.4	/	/
CCn1c(SCC(=O)N(Cc2ccccc2)C2CCS(=O)(=O)C2)nc2ccccc2c1=O (stereo unspecified)	9	3	-2	9339	-1.1	2	-2
Cc1ccc(NC(=O)c2ccc(NCCc3ccccc3)c([N+](=O)[O-])c2)cc1F	-4	-30	24	11272	0.7	5	0
COc1ccc(-c2csc(NC(=O)CN3C(=O)CCC3=O)n2)c(OC)c1	2	5	-14	2057	1.9	-1	0
Cc1cc(C)cc(OCC(=O)O/N=C(\N)c2ccccn2)c1	/	-7	-3	2730	/	/	/
O=C(CN1CCN(S(=O)(=O)c2ccc(F)cc2)CC1)c1ccc(O)c(O)c1	10	-7	-9	4418	2.0	-3	10
COc1cccc2c1Oc1ncccc1N(C(=O)CCC(=O)NCc1ccc(C)cc1)C2	3	3	-1	4615	1.4	13	6
CC1(C)COC(c2cccc([N+](=O)[O-])c2)OC1	-2	-16	/	3586	5.2	9	4
Cc1cc(NC(=O)c2ccc3c(c2)C(=O)N(Cc2cccnc2)C3=O)no1	14	-13	-1	6431	4.5	-4	-9
CC(C)n1c(SCC(=O)Nc2ccc(F)cc2)nnc1C1CC1	13	-20	7	4316	3.4	4	-2
COc1ccc(CNC(=O)CSc2n[nH]c(N)n2)cc1OC	7	-5	-12	5443	0.3	13	8
Cc1ccc(NC(=O)COc2ccc(/C=N\NC(=O)c3cccnc3)cc2)cc1C	/	-5	-3	4502	/	/	/
COc1cccc(Nc2ccc(Nc3cccc(OC)c3)nn2)c1	-9	-22	6	2398	3.5	7	2
CC1CCCCN1CC(O)COc1ccc(OCC(O)CN2CCCCC2C)cc1 (stereo unspecified)	10	-8	-12	3395	-1.6	10	-1
COc1ccc(/C=C/C(=O)O)cc1S(=O)(=O)NCC1CCCO1 (stereo unspecified)	7	-5	-4	3456	2.7	-1	-4
Cc1ccc2c(c1)CCCN2C(=O)CSc1ccccc1	6	-19	-5	4339	7.5	10	3
CSc1ccc(CN2CCN(c3ccccc3C)CC2)cc1	35	-4	-6	3306	-5.0	4	-1
CCOc1ccc(NC(=O)CCC(=O)NNC(=O)c2cccc([N+](=O)[O-])c2)cc1	9	-3	/	2924	3.0	9	4
CCc1cccc(NC(=O)CCCn2nc(CC)n3c(cc4occc43)c2=O)c1	-2	-20	2	5312	-1.8	8	-1
Cc1cc2cc(C)c3nnc(SCC(=O)Nc4ccc(S(=O)(=O)N5CCCCC5)cc4)n3c2cc1C	3	-18	-5	2049	2.6	-3	5
CCCn1c(C)cc(C(=O)CN2C(=O)c3cccc(N)c3C2=O)c1C	4	-123	/	4284	-1.5	10	2
Cc1cc(C)cc(OCCCOc2cccc3cccnc23)c1	9	5	6	2111	-0.5	/	/
Cc1cc(C)n2nc(SCc3ccc(F)cc3Cl)nc2n1	5	-16	-3	3950	1.6	5	0
CN(c1cccc(NC(=O)c2ccccc2N(Cc2ccccc2)S(C)(=O)=O)c1)S(C)(=O)=O	-1	-39	-6	3522	3.4	1	-7
CC(=O)c1cccc(N(CC(=O)NC2CCCC2)C(=O)c2ccc(C)s2)c1	-3	5	0	2954	0.8	3	-1
Cc1cc(C)n(-c2ccc(NC(=O)C3CCCCN3C(=O)c3cccs3)cc2)n1 (stereo unspecified)	-2	-12	9	6423	-3.3	-5	0
CCOP(=O)(OCC)C(Nc1cccc([N+](=O)[O-])c1)c1ccc(OC)cc1 (stereo unspecified)	-5	/	0	3755	-0.3	8	1
CNC(=O)c1c(NC(=O)c2ccc(N3C(=O)CCC3=O)cc2)sc2c1CCCC2	-17	10	7	5422	-1.9	1	2
CS(=O)(=O)N(CC(=O)N/N=C/c1ccccn1)c1ccc(Oc2ccccc2)cc1	/	-16	2	2594	/	/	/
COc1ccccc1NC(=O)CNC(=O)c1ccccc1C	-4	-41	7	24190*	3.6	3	3
COc1cccc(CNC(=S)NC2CCCC2)c1	-2	-11	0	10083	3.0	1	-1

An excerpt from above, showing only Mtb hypoxia inh growth and Mtb hypoxia inh:
structure	Mtb hypoxia inh growth	Mtb hypoxia inh
COc1ccccc1NC(=O)CNC(=O)c1ccccc1C	3	3
CC(C)n1c(SCC(=O)Nc2ccc(F)cc2)nnc1C1CC1	-2	4
O=S(=O)(NCC1CCCO1)c1cc(Cl)ccc1Br (stereo unspecified)	7	2
